# Bioassay records as filed in PubChem BioAssay.
# Vif A3G: inhibitors of Vif binding to APOBEC3G peptide, primary screen, biochemical, TR-FRET, GST-Vif 1-94, biotin-A3G peptide, dose response retest (AID 1117319); TR-FRET GST-Vif / biotin-A3G peptide binding; higher % means a stronger effect; test concentration not given here; strong numbers were not always called active; inhibition, %; hits with a dose series show IC50 in µM; actives 0.57% (n = 260,000);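 active = above the screen mean plus three standard deviations and confirmed in dose response; inconclusive = results disagree or hit not tested in dose response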;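 also: Vif residues 1-94 fused to GST binding biotinylated APOBEC3G peptide 110-148; 0% = full assay without inhibitor and 100% = GST in place of GST-Vif; retest series ran down from 100 µM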
# UCH37 DUB inh: inhibitors of human deubiquitinating enzyme UCH37; inhibition, % (test concentration not listed); actives 0.33% (n = 330,000); AID 588478; purified proteasome/UCH37, Ub-AMC cleavage fluorescence; Q9Y5K5;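 active = mean of two replicates above 20%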;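 also: 0% = compound-free wells with enzyme and 100% = wells lacking proteasome; stock transfer was 100 nL into about 20 µL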
# Target sequence (Q9Y5K5 whole entry, looked up): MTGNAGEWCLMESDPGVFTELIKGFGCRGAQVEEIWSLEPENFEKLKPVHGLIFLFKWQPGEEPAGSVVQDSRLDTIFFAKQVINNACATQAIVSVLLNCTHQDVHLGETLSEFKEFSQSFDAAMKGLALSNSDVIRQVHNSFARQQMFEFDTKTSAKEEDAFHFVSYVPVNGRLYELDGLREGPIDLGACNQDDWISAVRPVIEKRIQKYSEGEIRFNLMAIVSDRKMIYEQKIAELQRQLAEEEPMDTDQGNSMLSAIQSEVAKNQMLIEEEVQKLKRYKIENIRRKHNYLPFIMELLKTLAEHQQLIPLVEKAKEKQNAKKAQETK
#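 Schedule: 30 min plus 25 min, room temperature / Material: human UCH37 within purified proteasomes / Technique: AMC fluorescence intensity at 355/460 nm / Buffer or medium: pH 7.4 Tris-HCl (50 mM) with ovalbumin, ATP-MgCl2, DTT / Controls: wells without proteasome as full block, compound-free enzyme plus substrate as uninhibited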
# Ecoli growth: inhibitors of Escherichia coli growth. actives 0.21% (n = 330,000). OD600, 23 h; stronger effect = lower value. OD600 absorbance (no concentration beside the values). AID 1053175;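 active = OD600 absorbance below the run mean of sample wells minus 3.6 SD, in any replicate, cut at about 0.56 in these data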;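 also: stock transfer was 300 nL into about 60 µL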
# RanGTP-Imp inh: disruptors of Ran-importin-beta complex formation – biochemical, FRET, CFP-Ran, YFP-importin-beta, homogeneous, primary screen. cell-free CFP-Ran/YFP-importin-beta FRET ratio. inhibition, % (concentration not given with the values). actives 1.1% (n = 300,000);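 active = most replicates above 15%; inconclusive = exactly half above 15%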;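 also: 0% = DMSO wells and 100% = Ran loaded with GDP instead of GTP; wells of about 40 µL received 100 nL stock; the first replicate is given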
# HNF4A DNA FP: change in binding of human HNF4 alpha to DNA; P41235; HNF4a-FITC DNA binding, fluorescence polarization, 1 h; activity change, % at 10 µM; actives 0.3% (n = 360,000); in the data active = activity change above about 30%, passing the limit was not always enough;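 also: controls were the assay level and a saturating level of protein; the project sought stronger binding though the title names inhibitors; some compounds called inactive have numbers as strong as hits; positive values seem to mean higher polarization but the record does not say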
# AF4-AF9 inh: blocks AF4 peptide binding to human AF9; P42568; inhibition, % at 10 µM; actives 0.47% (n = 350,000); AlphaScreen, biotin-AF4 peptide binding to FLAG-AF9;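 active = every replicate reaching a set inhibition limit, whatever the replicate mean, cut at about 25% in these data; inconclusive = mean inhibition reaches that limit but some replicates miss it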;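 also: 0% = plate neutral control median and 100% = total signal loss; the record names both 10 and 1 µM as test concentration; the first replicate is given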
# Target sequence (P42568 whole entry, looked up): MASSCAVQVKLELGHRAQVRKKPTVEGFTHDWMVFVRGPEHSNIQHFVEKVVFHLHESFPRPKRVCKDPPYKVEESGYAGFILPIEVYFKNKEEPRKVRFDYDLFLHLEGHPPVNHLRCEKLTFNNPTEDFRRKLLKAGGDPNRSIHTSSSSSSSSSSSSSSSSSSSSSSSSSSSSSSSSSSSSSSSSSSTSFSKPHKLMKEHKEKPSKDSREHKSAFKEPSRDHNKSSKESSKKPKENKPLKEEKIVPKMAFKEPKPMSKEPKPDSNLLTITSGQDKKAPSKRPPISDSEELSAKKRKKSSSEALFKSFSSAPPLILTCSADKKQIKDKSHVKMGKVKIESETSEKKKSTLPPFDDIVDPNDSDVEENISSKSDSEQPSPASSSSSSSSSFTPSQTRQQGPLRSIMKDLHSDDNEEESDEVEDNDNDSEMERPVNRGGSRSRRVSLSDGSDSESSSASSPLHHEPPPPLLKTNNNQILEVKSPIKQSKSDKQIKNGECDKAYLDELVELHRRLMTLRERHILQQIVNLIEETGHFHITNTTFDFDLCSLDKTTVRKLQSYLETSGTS
# FGF22 binding: binders of recombinant human FGF22 by thermal shift; SYPRO orange fluorescence; percent of sucrose octasulfate shift, DMSO zero; calls only at 9.99 µM; AID 651658; actives 1.5% (n = 340,000); Q9HCT0;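 active = melting point raised past a set limit in the mean and every replicate; inconclusive = no clear call; three in four hits are not shown here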
# Target sequence (Q9HCT0 whole entry, looked up): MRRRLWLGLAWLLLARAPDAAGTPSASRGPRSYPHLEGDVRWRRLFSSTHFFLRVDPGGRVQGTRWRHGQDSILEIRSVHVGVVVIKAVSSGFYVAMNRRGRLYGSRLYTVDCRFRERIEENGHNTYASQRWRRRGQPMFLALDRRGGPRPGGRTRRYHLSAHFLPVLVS
# * = called active by the depositor; i = inactive; ? = inconclusive; · = not tested or not shown; & = joins results of further samples.
# Sample of the layout, 3 compounds:
SMILES,Vif A3G,UCH37 DUB inh,Ecoli growth,RanGTP-Imp inh,HNF4A DNA FP,AF4-AF9 inh,FGF22 binding
O=[N+]([O-])c1ccccc1S(=O)(=O)NCCSCc1ccco1,·,0.4,0.64,·,-1.9,5.3,i
CC1CCCC(C(=O)O)N1C(=O)CCS (centres undefined),-6%,5.2,0.75,-3.5,-2.3,·,·
CN(CCc1cn[nH]c1)C(=O)C1CCC(=O)N(CC2CCCCC2)C1 (centres undefined),·,-2.1,0.68,-1.0,3.2,-1.2,i

# Results (from the top)
SMILES,Vif A3G,UCH37 DUB inh,Ecoli growth,RanGTP-Imp inh,HNF4A DNA FP,AF4-AF9 inh,FGF22 binding
O=[N+]([O-])c1ccccc1S(=O)(=O)NCCSCc1ccco1,·,0.4,0.64,·,-1.9,5.3,i
CC1CCCC(C(=O)O)N1C(=O)CCS (centres undefined),-6%,5.2,0.75,-3.5,-2.3,·,·
CN(CCc1cn[nH]c1)C(=O)C1CCC(=O)N(CC2CCCCC2)C1 (centres undefined),·,-2.1,0.68,-1.0,3.2,-1.2,i
Cc1cc(NC(=O)CSc2nc3ccsc3c(=O)n2CCCCC(=O)O)no1,31%,0.2,0.66,5.6,0.2,9.1,i
O=C1CN(S(=O)(=O)c2cc(C(F)(F)F)ccc2Cl)CCN1,·,1.1,0.69,·,0.9,-2.9,i
Cc1ccc(SCCNC(=S)Nc2ccccc2)cc1,0%,4.0,0.68,1.9,3.3,·,·
O=C(Cn1cc(C(=O)c2cccs2)c2ccccc21)NCc1ccc2c(c1)OCO2,14%,5.0,0.84,9.0,4.5,-11,i
O=C(C[n+]1ccccc1)N/N=C/c1ccc(F)cc1,4%,·,·,3.5,0.3,-2.9,i
Cc1cc2c(=Cc3ccc(N(C)C)cc3)c3ccccc3n2[n+]1C,17µM*,·,·,·,195,30*,i
COCCNC(=O)C1(C)CCCN(C(=O)c2cc(C)on2)C1 (centres undefined),·,·,·,·,-2.4,-2.2,i
O=c1c2ccccc2oc2ccc(-c3ccc4cc[nH]c4c3)cc12,·,-1.8,0.68,·,1.8,·,·
COc1ccc(CCN(Cc2ccccn2)C(=S)Nc2cccc(C)c2)cc1OC,4%,-1.9,0.73,1.3,-3.4,-0.4,i
O=c1cc(-c2ccc([N+](=O)[O-])cc2)c2cc3c(cc2[nH]1)OCCO3,9%,3.4,0.68,-0.9,-0.6,1.7,i
O=C(NCc1ccco1)c1ccc(COc2ccccc2[N+](=O)[O-])o1,3%,5.7,0.7,-1.8,0.8,3.9,i
CC(C)(C)c1ccc(SCCc2ccccn2)cc1,·,1.9,0.64,0.9,-12,·,i
CC(CN1CCCC1)OC(=O)c1ccc(Br)cc1 (centres undefined),3%,0.7,0.68,-5.7,0.1,4.1,i
CCC(=O)OCOc1ccc(/C=C2/CCC(CN(C)C)C2=O)cc1 (centres undefined),-6%,·,·,·,-4.4,-2.9,i
c1ccc(OCCOc2ncnc3sccc23)cc1,-4%,1.5,0.67,-1.2,9.7,·,·
Cc1ncccc1C(=O)N1CCCC(c2cc(C(=O)Nc3ccc(C(C)(C)C)cc3)no2)C1 (centres undefined),·,·,·,·,1.0,2.2,i
COc1ccc(C2c3[nH]c4ccccc4c3C[C@H]3C(=O)N(c4ccccc4C(=O)N4CCC[C@@H]4C(=O)O)C(=O)N23)cc1 (some centres undefined),·,1.3,0.65,·,-0.9,0.7,i
O=C(/C=C/C=C/c1ccc2c(c1)OCO2)N1CCCCC1,·,-19,0.75,·,-0.6,4.5,i
CN1CCN(S(=O)(=O)c2ccc(NC(=O)c3ccco3)cc2)CC1,-7%,-0.3,0.76,0.3,-1.5,·,·
CC(=O)NC(=S)Nc1ccccc1C(=O)Nc1ccccc1,?,1.0,0.74,?,-1.2,·,·
CC1CCc2cc(F)ccc2N1C(=O)CSc1nnc(-c2cccs2)n1C (centres undefined),68%,1.9,0.72,-3.1,3.5,·,·
CC1CCN(C(=O)c2[nH]cnc2C(=O)Nc2ccc(Cl)cc2)CC1,·,-0.1,0.69,·,2.8,·,i

# Remaining list, next part:
SMILES,Vif A3G,UCH37 DUB inh,Ecoli growth,RanGTP-Imp inh,HNF4A DNA FP,AF4-AF9 inh,FGF22 binding
O=[N+]([O-])c1cccc(N/N=C/c2cccc(O)c2O)c1,19%,·,·,3.3,-0.7,5.7,i
CC1(C)CC(=O)c2cc(NC(=O)c3ccccc3)c(=O)oc2C1,·,7.6,0.64,4.7,-1.0,6.1,i
CCOc1ccc(C(C(=O)NCC2CCCO2)N(CCc2cccc(C)c2)C(=O)c2snc(C(N)=O)c2N)cc1 (centres undefined),·,-29,0.68,-2.1,-1.1,6.0,i
COc1cc(Cl)ccc1OC1(C)CCN(Cc2ccc(SC)cc2)C1 (centres undefined),·,·,·,·,-1.1,4.5,i
O=C(/C=C/c1cccc(Oc2ccccc2)c1)N1CCOCC1,2%,3.3,0.69,0.1,-0.6,2.2,i
CCN(CC)S(=O)(=O)c1ccc(NN=c2c(=O)c3ccccc3c2=O)cc1,-15%,4.4,0.7,5.6,0.9,-17,i
COc1ccc(CNC(=O)C(C)n2ccc3cc(S(=O)(=O)N4CCCCCC4)ccc32)cc1 (centres undefined),-3%,1.4,0.73,-0.9,-0.9,-1.1,i
O=C(Nc1ccnn1C1CCN(Cc2c[nH]c3ccccc23)CC1)c1ccccc1,·,4.0,0.68,-1.7,0.3,12,i
CCOc1ccccc1C(=O)NCC(=O)NCC(c1ccco1)N1CCCCC1 (centres undefined),1%,0.7,0.61,?,-2.3,-9.8,·
O=C(CSc1nnc(-c2ccccc2)c(-c2ccccc2)n1)Nc1ccc(Br)cn1,·,3.1,0.74,4.2,2.8,0.0,i
O=c1c2c(nc3n1CCS3)c1cc(F)ccc1n2Cc1cc(=O)n2cc(Cl)ccc2n1,19%,1.0,0.7,0.6,·,·,·
CCS(=O)(=O)N1CCCC(C(=O)NCCc2ccc(C)cc2)C1 (centres undefined),-2%,0.3,0.69,-1.5,-3.1,·,·
CC(=O)N1CCN=C1SCc1cccc(Cl)c1,·,2.6,0.71,-0.8,3.8,0.9,i
O=C(c1cc2cc([N+](=O)[O-])ccc2oc1=O)N1CCN(c2ncccn2)CC1,3%,2.9,0.64,3.5,1.4,·,·
O=C(O)COc1ccccc1/C=N/Nc1ccc(S(=O)(=O)Nc2ccc(Cl)cc2)cc1[N+](=O)[O-],4%,·,·,-0.4,-3.4,4.7,i
Cc1cc(NC(=O)CSc2nccn2-c2cccc(Cl)c2)no1,-5%,2.6,0.71,5.1,1.1,2.4,i
Cc1ccc(SCC(=O)NC2CC3CCC(C2)N3C)cc1 (centres undefined),·,0.2,0.69,4.3,0.0,·,i
CNC(=O)c1cccnc1Nc1cccc(C(F)(F)F)c1,·,0.6,0.69,?,5.6,-2.5,i
CCOC(=O)C1=C(C)NC(=O)NC1c1cn(-c2ccccc2)nc1-c1cccs1 (centres undefined),5%,-0.8,0.7,-3.9,1.2,·,·
COc1ccc2[nH]cc(CCNC(=O)C3CCCCC3)c2c1,·,-1.1,0.68,1.4,2.1,1.0,i
CCCCCCSc1cccc(-c2nc3ccc(C)cn3c2NCc2ccccc2)c1,·,-168,0.7,7.1,3.6,-2.2,i
Cc1cccc(CN2C(=O)CSc3ccc(C(=O)NC4CC4)cc32)c1,·,0.1,0.66,0.6,1.1,-3.9,i
CC(C)CC(=O)Nc1ccccc1N1CCN(C(=O)c2ccccc2)CC1,-4%,0.2,0.74,-1.6,1.4,·,·
CCN(CC)S(=O)(=O)c1ccc(C(=O)NCc2ccc(C)cc2)cc1,23%,3.7,0.71,-0.6,4.1,·,·
COC(=O)[C@@]12C[C@@H](CC(=O)NCc3ccccc3)C(=O)N(CCc3ccc(OC)c(OC)c3)C1=CCC(C)(C)C2,·,·,·,·,2.0,-0.5,i

# Next part:
SMILES,Vif A3G,UCH37 DUB inh,Ecoli growth,RanGTP-Imp inh,HNF4A DNA FP,AF4-AF9 inh,FGF22 binding
N#CC1C(=O)NC(=O)C(C#N)C12CCCc1sccc12 (centres undefined),-4%,·,·,·,1.2,-2.6,i
CSCCC(NS(=O)(=O)c1ccc(C)cc1)C(=O)NCCc1c[nH]c2ccccc12 (centres undefined),·,-1.1,0.7,-5.6,-2.4,·,·
O=c1[nH]c(O)c(/C=C2\C=Nc3ccc(Br)cc32)[nH]1,·,6.9,0.71,1.0,-0.7,1.7,i
CCOC(=O)c1ccc(NNC(C)=O)c([N+](=O)[O-])c1,-3%,5.2,0.71,3.7,-0.3,-1.5,i
COc1cccc(NC(=O)CCc2nc(-c3cccs3)no2)c1,·,2.3,0.67,-0.7,2.0,·,·
Cc1ccc(S(=O)(=O)n2c([N+](=O)[O-])cnc2C)c(C)c1C,10%,4.6,0.7,-1.3,0.0,·,·
CCc1ccc(Nc2ncc3c(n2)CC(c2ccc(OC)cc2)CC3=O)cc1 (centres undefined),-4%,-18,0.76,-6.2,0.3,·,·
O=C(O)CCNC(=O)/C(=C/C=C/c1ccccc1)NC(=O)c1ccccc1,10%,12,0.62,-4.2,-4.5,2.8,i
CCOC(=O)C(C)S(=O)(=O)c1ccc(C(F)(F)F)cn1 (centres undefined),2%,1.3,0.79,2.0,4.0,·,·
CCCC(=O)Nc1ccc(C(=O)NNC(=S)NC(=O)c2cccs2)cc1,17%,7.5,0.56,3.8,-1.0,·,·
CCc1ccc(Nc2ccc(S(=O)(=O)N3CCOCC3)cc2[N+](=O)[O-])cc1,·,4.2,0.68,10,-1.7,·,·
CC(C)Cc1nnc(NC(=O)CCC(=O)N2CCN(c3ccc(Cl)cc3)CC2)s1,·,0.0,0.67,?,0.0,-0.7,i
CCCCC(=O)Nc1ccc(C(=O)NNC(=O)c2ccccc2Br)cc1,5%,1.6,0.65,2.4,1.3,5.0,i
O=C(CNC(=O)N1CC(=O)Nc2ccccc21)Nc1ccc(Br)cc1F,-6%,·,·,·,4.1,-8.0,i
O=C(Cc1ccccc1Cl)NNC(=O)Nc1ccccc1,3%,0.2,0.63,-3.2,2.8,·,·
CC1(C)NC(C(=O)O)Cc2c1[nH]c1ccccc21 (centres undefined),-3%,1.2,0.76,?,1.2,-7.3,i
C[C@H]1CN([C@@H](C)CO)C(=O)c2cccc(NC(=O)C3CC3)c2O[C@H]1CN(C)S(=O)(=O)c1ccccc1,·,0.6,0.76,·,-4.9,1.4&-1.9,i
CN(C)c1nc(N)c(C(=O)N=C(N)N)nc1Cl,·,7.9,0.64,?,0.8,2.6,i
Cc1nn2c(-c3ccncc3)nnc2c2ccccc12,9%,0.7,0.68,·,2.3,·,·
COc1ccc(-c2cc(C3CCN(c4ncccc4[N+](=O)[O-])CC3)[nH]n2)cc1,-2%,1.8,0.73,-3.5,-2.0,·,·
CSc1nc(-c2ccco2)cc(-c2ccccc2)c1C#N,1%,-3.2,0.76,0.0,3.5,·,·
Cc1c(NC(=O)c2nn3c(c2Br)NC(c2ccccc2)CC3C(F)(F)F)c(=O)n(-c2ccccc2)n1C (centres undefined),30%,2.7,0.63,0.5,-1.6,·,·
CC(Nc1cc(N2CCOCC2)ccc1[N+](=O)[O-])c1ccccc1 (centres undefined),4%,3.5,0.69,-2.1,-0.3,·,·
O=C1CC(C(=O)N2CCN(c3ccccc3Cl)CC2)CN1Cc1ccccc1 (centres undefined),-3%,0.1,0.67,·,-4.8,-0.6,i
CCn1cc(C(=O)NC2CC(C)(C)Cc3c2cnn3-c2cccc(F)c2)cn1 (centres undefined),1%,-0.7,0.69,0.5,-1.6,-0.8,i
O=C(N/N=C\C=C\c1ccc2c(c1)OCO2)C1COc2ccccc2O1 (centres undefined),-2%,·,·,-0.5,3.7,4.1,i
Cc1ccc(OC(=O)N2CCOCC2)cc1,25%,-0.8,0.69,2.6,1.2,·,·

# Only part of the results is shown (hit frequency here may not be typical).
